# GALR2 agonist = GALR2 receptor agonists, primary screen, cell-based; GALR2-expressing cells, agonist activation read-out; activation, %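 (tested at 5 µM)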; AID 803, 2007; 140,000 compounds, 0.48% hits;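 active means above mean plus 3 SD of all compounds, about 5% in these data, not always enough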;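 further: 0% = vehicle buffer wells and 100% = reference agonist at full effect; tested in CHO reporter cells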
# PKD1 inh = inhibitors of human PKD1 kinase, biochemical, fluorescence polarization. PKD1 kinase fluorescence polarization assay. inhibition, %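 (about 10 µM by stock and volumes)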. 200,000 compounds, 0.056% hits;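 active means inhibition of 50% or more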;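 further: controls were vehicle for no effect and a reference inhibitor for full effect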
# Target sequence (Q15139 whole entry, looked up): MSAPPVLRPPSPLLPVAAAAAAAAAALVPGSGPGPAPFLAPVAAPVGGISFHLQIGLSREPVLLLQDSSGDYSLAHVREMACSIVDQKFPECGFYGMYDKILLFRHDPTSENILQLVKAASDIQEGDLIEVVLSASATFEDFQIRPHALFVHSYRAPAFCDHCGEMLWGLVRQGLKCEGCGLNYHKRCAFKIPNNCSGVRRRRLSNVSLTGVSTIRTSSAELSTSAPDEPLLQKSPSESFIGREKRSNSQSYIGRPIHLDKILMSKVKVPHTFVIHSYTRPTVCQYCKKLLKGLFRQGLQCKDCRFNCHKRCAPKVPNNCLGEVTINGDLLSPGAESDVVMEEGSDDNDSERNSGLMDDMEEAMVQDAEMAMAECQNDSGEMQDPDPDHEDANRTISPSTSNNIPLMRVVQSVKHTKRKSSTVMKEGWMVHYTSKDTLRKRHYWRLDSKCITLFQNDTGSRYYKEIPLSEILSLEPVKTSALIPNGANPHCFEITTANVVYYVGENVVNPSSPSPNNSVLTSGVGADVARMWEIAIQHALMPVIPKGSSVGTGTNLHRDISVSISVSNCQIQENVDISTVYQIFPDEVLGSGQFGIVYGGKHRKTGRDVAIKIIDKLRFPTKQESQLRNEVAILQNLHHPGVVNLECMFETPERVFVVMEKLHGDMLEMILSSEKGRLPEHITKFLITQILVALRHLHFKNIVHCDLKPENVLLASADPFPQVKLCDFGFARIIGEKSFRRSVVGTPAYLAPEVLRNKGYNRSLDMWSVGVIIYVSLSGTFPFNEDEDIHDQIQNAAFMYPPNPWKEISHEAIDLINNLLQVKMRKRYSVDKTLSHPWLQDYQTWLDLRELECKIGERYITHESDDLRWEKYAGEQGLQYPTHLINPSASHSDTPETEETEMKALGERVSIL
# RGS16-Gao HTS = modulators of RGS16 binding to Galphao, primary screen, biochemical, human proteins, multiplexed bead flow cytometry. AID 1441, 2008. bead-based flow cytometry RGS16-Galphao binding, fluorescence; actives lie on both sides. 220,000 compounds, 0.38% hits. Regulator of G-protein signaling 16 (Homo sapiens) + Guanine nucleotide-binding protein …. binding response (% of control), % at 10 µM;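 active means below 25% or above 175%, edge rows of some plates excepted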;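 further: Galphao activated by GDP with aluminum fluoride before binding; 100% = wells without compound and 0% = beads without RGS; some results beyond the cut were filed as inactive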
# HSV replic up = enhancers of HSV replication in host cells, fold increase, host cell viability; HSV replication augmentation in cells; maximum fold increase; 220,000 compounds, 0.005% hits; AID 1956, 2009;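 active means peak rise of 1.5-fold or more in the series; inconclusive means self-fluorescent or not available for retest; tested in PC3 cells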;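 further: first round at 10 µM; read as green reporter fluorescence; hits show the peak of a series up to 25 µM; 1 = signal of infected wells without compound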
# Insulin prom inh = inhibitors of insulin promoter-driven GFP, primary screen, imaging, TRM-6 cells (human fetal islet line), eGFP reporter, cell count; 130,000 compounds, 0.9% hits; inhibition, % at 2 µM; AID 1273, 2008; reporter expression induced with tamoxifen;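 active means inhibition above the mean plus 3 SD, with well images judged a real hit on visual review, cut at about 60% in these data, passing the limit was not always enough; inconclusive means inhibition over the cutoff but images rejected on review; inactive means inhibition not above the cutoff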
# Insulin prom inh cell count = also measured in Insulin prom inh; calls as there; normalized cell count, %; measured here: cell count, toxicity; reference of the scale not given here;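 cells exposed to compound for 48 h; stained nuclei by imaging scaled within each plate; lower means fewer cells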
# HSV replic up primary fold = recorded beside HSV replic up, whose call it bears; fold increase; compound at 10 µM; measured here: primary screen fold increase 10 uM; tested in PC3 cells;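 GFP signal in the first replicate; 1 = infected wells without compound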
# The depositor's hits bear a star; i = inactive; ? = inconclusive; / = not tested or not shown.
SMILES,GALR2 agonist,PKD1 inh,RGS16-Gao HTS,HSV replic up,HSV replic up primary fold,Insulin prom inh,Insulin prom inh cell count
COc1ccccc1NC(=S)N1CCN(c2ncccn2)CC1,/,-11,94,i,0.95,-6,102
NC(=O)C1(N2CCCCC2)CCN(C(=O)c2ccc(C#CC3(O)CCCCC3)cc2)CC1,-0.4,-3,93,i,1.1,-17,86
Cc1ccc(CSc2nnnn2C)cc1,-3.1,-6,100,i,0.66,-57,62
COc1ccc(OC)c(NC(=O)C2CC(C)=C(C)CC2C(=O)O)c1 (centres undefined),-2.8,-13,111,i,0.87,-55,105
COc1ccc(CC2(C)OC(c3ccccc3)=NN2C(C)=O)cc1 (centres undefined),-2.1,-7,129,i,1.1,31,71
COC(=O)/C(C#N)=C/c1c(-c2ccccc2)nc2n1CCS2,/,/,104,i,1.1,/,/
Nc1nnc(SCc2ccccc2Cl)s1,-2.1,-5,79,i,0.96,21,109
CCCCOC(=O)C(C)c1c(C)[nH]c(=S)[nH]c1=O (centres undefined),-2.1,-4,100,i,0.93,-86,112
CCC(C)(C)NC(=O)C(c1ccco1)N(C(=O)Cn1nnc2ccccc21)c1ccc2c(c1)OCO2 (centres undefined),0.9,-8,100,i,1.1,-83,227
COc1ccc(NC(=O)NCCN2CCc3ccccc3C2)cc1,-3.5,-7,102,i,0.98,61,60
CCCS/C(N)=N/N=C/c1cc(C)ccc1O,0.0,-6,96,i,0.87,16,106
Cc1ccccc1NC(=O)Cn1c(O)c(N=NC(=O)c2ccccc2O)c2ccccc21,-0.6,7,98,i,1.1,/,/
COc1ccccc1N1CCN(S(=O)(=O)c2ccc(-n3cnnn3)c(C)c2)CC1,-1.1,-3,113,i,0.98,-6,90
Cc1ccc(C(C)C)c(OCC(O)CN2CCN(CCO)CC2)c1 (centres undefined),-2.5,-6,109,i,0.94,-167,65
O=C(O)C1=C[C@@H](C2CCCCC2)C[C@@H](OCCCCO)O1,/,1,98,i,0.95,/,/
CC(C)(C)NC(=O)COC(=O)c1ccc(Cl)nc1,/,0,/,i,0.93,/,/
O=C(Nc1ccc(F)cc1)c1ccc2nsnc2c1,/,/,99,i,1,/,/
CC(C)c1ccc(OCc2cccc(C(=O)N/N=C/c3cccnc3)c2)cc1,-1.5,-14,77,i,1,-286,31
O=c1c2ccccc2oc2ncccc12,-0.7,7,99,i,0.88,36,64
O=C(Nc1ccc(F)cc1F)c1cncc(Br)c1,/,1,103,i,0.93,43,142
CCOc1ccc2[nH]c3c(N4CCc5ccccc5C4)ncnc3c2c1,/,/,101,i,0.72,/,/
CCOC(=O)c1oc2cc(C)cc(O)c2c(=O)c1-c1csc(C)n1,-2.8,3,103,i,0.87,-38,68
CCC1=C(OC(=O)N(CC)CC)N2C(=O)OC(=NCC(=O)OC)[C@]2(C)[C@H]2C1=CC[C@H]1C(=O)N(CC)C(=O)[C@H]12,/,/,95,i,0.92,/,/
Clc1c(CSc2nc3ccccc3o2)nc2ccccn12,0.5,-8,89,/,/,-36,121
Cc1ccc(S(=O)(=O)/N=C(\CN2CCCCC2)N2CCOCC2)cc1,-2.6,-5,104,i,1,-80,124

# The list goes on.
SMILES,GALR2 agonist,PKD1 inh,RGS16-Gao HTS,HSV replic up,HSV replic up primary fold,Insulin prom inh,Insulin prom inh cell count
[O-][N+]12CC[N+]([O-])(CC1)c1ccccc12,-0.4,-6,174,i,0.97,/,/
CNC(=O)NC(=O)CSc1ccc(NC(C)=O)cc1,-1.3,0,101,i,0.94,/,/
Cc1cc(Cl)ccc1N(CC(=O)N=Nc1c(O)[nH]c2ccccc12)S(C)(=O)=O,-0.4,0,99,i,1.2,-84,35
CN1CCN(C(=S)NC(=O)c2ccc(Br)cc2)CC1,/,/,100,i,1,/,/
Cc1nn(CC(=O)Nc2ccccc2)c(=O)c2ccccc12,-1.0,-6,101,i,1,17,102
Cc1onc(-c2ccccc2)c1C(=O)N(Cc1ccco1)Cc1cccs1,/,5,108,i,1,/,/
Cn1nc(-c2ccc(Cl)cc2)c2cc(C(=O)NCCCN3CCOCC3)sc21,-0.5,-12,97,i,0.49,/,/
Cc1ccc2cc(CN(CC(C)C)C(=O)C3CCCO3)c(=O)[nH]c2c1 (centres undefined),-3.5,-1,92,i,0.85,0,123
COCCn1c(C)cc(C(=O)COC(=O)/C=C/c2cccc(OC)c2)c1C,/,-3,104,i,0.69,57,97
CN(C)S(=O)(=O)c1ccc(C(=O)OCC(=O)c2ccc(OC(F)F)cc2OC(F)F)cc1,-2.2,-3,100,i,1.1,16,66
CCOC(=O)N1CCC(=NNC(N)=O)CC1,/,1,97,i,0.96,40,123
O=C(/C=C/c1cccc([N+](=O)[O-])c1)n1cnc2ccccc21,/,3,98,i,0.6,-47,15
CCOc1ccc(C2C(C#N)=C(N)Oc3cc(C)n(Cc4ccco4)c(=O)c32)cc1OC (centres undefined),0.2,-3,98,i,0.82,25,94
COc1ccc(/C=N/Nc2nc(NCc3ccco3)nc(Nc3ccc(OC)cc3)n2)cc1,-1.7,-4,106,i,0.98,8,175
COc1cc(C2NC(=O)NC(C)=C2C(=O)OC(C)(C)C)ccc1OCC(N)=O (centres undefined),-1.0,0,96,i,0.91,0,1
COc1ccc(/C=C/C(=O)c2cc(Cl)cc(Cl)c2O)c(OC)c1,/,/,96,i,0.77,/,/
CCC(=O)Nc1nc(N)n(-c2ccccc2)n1,-1.6,-2,83,i,1,4,68
O=S(=O)(Cc1ccccc1)N1CCCc2ccccc21,/,2,108,i,1.1,36,84
COc1ccccc1N=Nc1[nH]c2ccc(C)cc2c1O,-1.9,-7,110,i,0.67,-4,109
COc1ccc(C(=O)NNC(=O)c2cnccn2)cc1[N+](=O)[O-],-3.5,-16,102,i,0.97,3,140
c1nnc(NC2=NCCCCC2)s1,-1.0,-13,102,i,0.98,11,79
O=C(O)CCc1nn2c3ccccc3n(Cc3ccccc3)c2nc1=O,/,3,98,i,1.2,/,/
COc1cccc(CNc2ccc3c(c2)CCC3)c1,-2.6,-7,99,i,0.93,-29,172
CC(=O)NS(=O)(=O)c1cccnc1Nc1cccc(Cl)c1C,-1.1,-7,101,i,0.9,33,78
COc1ccc2oc(-c3ccco3)cc(=O)c2c1,/,-2,97,i,0.9,2,94

# Next records.
SMILES,GALR2 agonist,PKD1 inh,RGS16-Gao HTS,HSV replic up,HSV replic up primary fold,Insulin prom inh,Insulin prom inh cell count
Cc1cc(C)c2cc3c(ccn3C3OC[C@H](O)[C@H](O)[C@H]3O)cc2n1 (some centres undefined),-1.9,-10,90,i,0.99,17,101
Nc1ccc(O)cc1C(=O)OCC(=O)C12CC3CC(CC(C3)C1)C2,1.1,18,90,i,1.1,15,64
COC(=O)c1ccc(/C=N/NC(=O)CC(=O)NCC(C)C)cc1,-2.4,1,104,i,0.91,/,/
O=C(CSc1nnc(C2CC2)n1-c1ccccc1)Nc1ccc(N2CCOCC2)cc1,-0.8,-2,86,i,0.97,13,113
CCN1CCCC1CNC(=O)c1ccccc1Cl (centres undefined),0.5,-6,172,i,1.1,-338,94
O=C(CN(c1ccccc1)S(=O)(=O)c1ccc(F)cc1)NC1CCS(=O)(=O)C1 (centres undefined),/,3,104,i,0.94,-5,85
O=C(CSc1nnc(NC(=O)C2CC2)s1)NCc1cccs1,/,-7,63,i,1,0,82
Cc1ccc(-n2nnnc2SCn2nnc3ccccc3c2=O)c(C)c1,-3.6,-8,102,i,1,7,90
Cc1ccc(F)cc1NC(=O)C1CCN(c2cnccn2)CC1,1.0,10,104,i,0.78,/,/
O=C(C1CC1)N(Cc1nc2ccccc2c(=O)[nH]1)Cc1cccs1,/,/,102,i,0.98,/,/
CCCN1C(=O)/C(=C\C=C2/Sc3ccccc3N2CCO)SC1=S,/,-6,104,?,/,-431,79
Cc1nn(C)cc1CN(C)C(=O)c1cc2nc(-c3ccco3)cc(C(F)(F)F)n2n1,-2.4,-1,105,i,1,/,/
COc1cccc(Nc2cc(C)nc3ccccc23)c1,-0.4,-5,109,i,0.82,-14,126
COc1ccc(Cl)cc1NC(=O)C(OC)c1ccccc1 (centres undefined),/,-5,100,i,0.95,/,/
CC(=O)Oc1ccc(-c2ccc(C(=O)O)cc2)cc1,0.1,2,102,i,0.88,-17,193
Cc1ccc(Cl)cc1N1CCN(C(=O)c2cc3c(=O)n(C)c4ccccc4c3n2C)CC1,-4.7,-16,100,i,1.1,/,/
O=C(NCCN1CCOCC1)c1ccc([N+](=O)[O-])cc1[N+](=O)[O-],-1.5,3,99,i,0.99,/,/
COCCCNCCOc1cc(C(C)C)ccc1C,-1.8,-3,109,i,0.96,-4,49
COC(=O)CCCCCNc1ccc(C(=O)OC)cc1N,-2.4,-6,57,i,1,-105,77
O=C(Oc1ccc(N(C(=O)c2ccncc2)S(=O)(=O)c2cccs2)cc1)c1ccncc1,/,0,98,i,1.1,28,119
CC1CCc2sc(C(=O)OCC(=O)NC(C)C)cc2C1 (centres undefined),/,-6,97,i,1.2,/,/
CCOc1ccc(-c2cc(N3C(=O)Nc4ccccc4N3O)on2)cc1,-1.9,-4,121,i,0.91,50,86
COc1ccc(CCNC(=O)c2c(C)noc2C)cc1,0.7,-3,102,i,0.83,0,116
COc1ccc2[nH]c(=O)c(CN(C(=O)c3cccnc3)c3ccc(C)cc3C)cc2c1,/,/,96,i,1.1,/,/
COc1cc2c(C(=O)N3CCN(c4cccc(Cl)c4)CC3)cn(C)c(=O)c2cc1OC,-1.4,1,98,i,0.5,-3,106

# Profiles as entered above:
# CCOc1ccc(-c2cc(N3C(=O)Nc4ccccc4N3O)on2)cc1 in the list: GALR2 agonist: -1.9; PKD1 inh: -4; RGS16-Gao HTS: 121; HSV replic up: i; HSV replic up primary fold: 0.91; Insulin prom inh: 50; Insulin prom inh cell count: 86
# O=C(NCCN1CCOCC1)c1ccc([N+](=O)[O-])cc1[N+](=O)[O-] in the list: GALR2 agonist: -1.5; PKD1 inh: 3; RGS16-Gao HTS: 99; HSV replic up: i; HSV replic up primary fold: 0.99; Insulin prom inh: /; Insulin prom inh cell count: /

# The list continues:
SMILES,GALR2 agonist,PKD1 inh,RGS16-Gao HTS,HSV replic up,HSV replic up primary fold,Insulin prom inh,Insulin prom inh cell count
Cc1ccc2c(c1)C(C)CC(C)(C)N2C(=O)CN1CCN(C)CC1 (centres undefined),/,/,101,i,0.95,/,/
CCO[C@@H]1OC(C(=O)N2CCN(Cc3ccccc3)CC2)=C[C@H](c2coc3ccccc3c2=O)[C@H]1CCCO,/,7,98,i,0.73,/,/
Cc1c(C(=O)c2ccccc2)c2ccccn2c1CCc1ccccn1,/,-3,98,i,1,/,/
COC(=O)[C@H](CC(C)C)NC(=O)NCCC1=CCCCC1,/,/,101,i,1.1,/,/
CC(=O)c1sc(-c2ccc(F)cc2)cc1NS(=O)(=O)c1ccc(C)cc1,/,/,95,i,0.98,/,/
Cc1ccc(Nc2nc(CSc3nnc(-c4ccc(F)cc4)n3C)cs2)cc1,0.2,-4,133,i,1,-39,52
COc1ccccc1NC(=O)C(=O)N(c1cccnc1)C(C(=O)NC(C)(C)C)c1ccccc1F (centres undefined),/,1,102,i,0.98,/,/
O=C(c1ccncc1)c1nccn1-c1ccccn1,0.1,-5,99,i,0.85,-8,39
N#CCCN(Cc1ccccc1)C(=O)Nc1ccc2c(c1)CCO2,/,/,101,i,1,/,/
Cc1nnc(N/N=C/c2c[nH]c3ccccc23)[nH]c1=O,/,/,103,i,0.9,/,/
O=C(COC(=O)/C=C/c1ccc([N+](=O)[O-])cc1)NCC1CCCO1 (centres undefined),/,-4,105,i,0.9,33,115
Cc1cccc(C(=O)N=c2c(C#N)cc3c(=O)n4cccc(C)c4nc3n2Cc2ccco2)c1,8.2,17,89,i,0.86,-14,60
CCCCOC(=O)/C=C\C(=O)NC(N)=O,/,/,100,i,1.2,/,/
CCC(=O)Nc1cc2c(C)cc(=O)oc2cc1C,-0.5,-4,102,i,1,18,129

# Taken from above:
# O=C(COC(=O)/C=C/c1ccc([N+](=O)[O-])cc1)NCC1CCCO1 (centres undefined) @ Insulin prom inh cell count: 115
# CC(=O)c1sc(-c2ccc(F)cc2)cc1NS(=O)(=O)c1ccc(C)cc1 @ HSV replic up primary fold: 0.98
